UUG fidelity: alters start codon recognition fidelity in yeast; activity score, % at 18.7 µM; S. cerevisiae UUG-firefly luciferase reporter, luminescence/redox ratio; AID 602363; hit rate 0.13% among 350,000;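 active = replicate mean at a twofold rise or more, about +100% in these data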;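 also: firefly luciferase made from a UUG start codon reports start codon fidelity; reporter light over untreated wells divided by growth signal over untreated wells; some hits fall short of that in this replicate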
Env fusion inh: blocks HIV Env-driven cell-cell fusion; HeLa-JRFL Env/CEM21 cell fusion, luciferase; inhibition, % at 12.3 µM; hit rate 1.1% among 360,000;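 active = mean replicate inhibition score of at least 50 and every replicate individually at or above 50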;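 also: 0% = plate neutral controls and 100% = maraviroc near 300 nM; one replicate is shown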
CSC inhib: blocks cancer stem cells; AID 2717; cancer stem cell-like cells viability, luminescence; inhibition, % at 7.5 µM; hit rate 1.1% among 300,000;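 active = mean at 75% or more and at least half the replicates too; tested in HMLE shEcad cells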;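 also: 0% = median of negative and 100% = median of positive control wells; the first replicate is given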
eIF4H FP inh: inhibitors of RNA binding by human eIF4H; hit rate 0.94% among 290,000; eIF4H fluorescence polarization binding assay; Q15056; inhibition, % at 35 µM; AID 2012;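 active = 50% or more with normal probe brightness, or confirmed in later tests; about a fifth of its hits are not listed in these tables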;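 also: calls also rest on retests at 20 µM and on dose response follow-up; 0% = protein and probe with vehicle and 100% = probe without protein; strong numbers were not always called active; many hits fall short of the cut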
PABP polyA inh: PABP-poly(A) binding inhibition; PABP-poly(A) RNA binding, fluorescence polarization; inhibition, % at 35 µM; hit rate 1% among 290,000; AID 2014;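 active = 50% or more with normal probe brightness, or confirmed in later tests; about a fifth of its hits are not listed in these tables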;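 also: calls also rest on retests at 20 µM and on dose response follow-up; controls were probe without protein and protein plus probe with vehicle; some compounds called inactive have numbers as strong as hits; many hits fall short of the cut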
Rce1 inhib: yeast Ras-converting enzyme inhibition | Q03530 | hit rate 0.27% among 290,000 | yeast membranes, quenched prenylated peptide cleavage fluorescence | calls only;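 active = fall in fluorescence gain of 50% or more versus controls, with final raw signal at or below 3038400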;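 also: plate controls were neutral control wells for no effect and wells lacking membranes for full effect; tested at 10 µM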
Target sequence (Q03530 whole entry, looked up): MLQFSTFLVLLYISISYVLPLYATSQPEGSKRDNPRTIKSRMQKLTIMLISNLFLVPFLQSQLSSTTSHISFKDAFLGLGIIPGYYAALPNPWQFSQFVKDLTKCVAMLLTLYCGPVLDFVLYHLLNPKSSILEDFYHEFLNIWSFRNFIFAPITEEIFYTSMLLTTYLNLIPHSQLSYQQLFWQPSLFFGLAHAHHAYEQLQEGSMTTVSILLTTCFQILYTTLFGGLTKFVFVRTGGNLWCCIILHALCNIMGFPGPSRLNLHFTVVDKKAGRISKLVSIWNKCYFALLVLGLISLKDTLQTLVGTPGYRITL
MT1-MMP act inh: blocks activation of human MT1-MMP | P50281 | HT1080 RFP-PRO-GFP cells, GFP/RFP ratio fluorescence, overnight; percent of plate control window, DMSO zero | GFP/RFP ratio change, % at 20 µM | hit rate 0.061% among 360,000;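 active = GFP/RFP ratio change of at least 30% with cell ATP level not reduced by more than half and red fluorescence within 50% of control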; also: strong numbers were not always called active
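Assay system: HT1080 RFP-PRO-GFP cells | Dosing: 20 µM single dose, 1% DMSO | Incubation: Cells overnight before dosing, compound overnight, 37 °C, 5% CO2 | Evaluation: GFP/RFP fluorescence ratio | Control set: DMSO-only wells and HT1080 RFP-L50D-GFP cell wells as references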
eIF4H FP inh retest: also measured in eIF4H FP inh; calls as there; inhibition, %; compound at 20 µM; confirmation average;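 mean of two retest wells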
PABP polyA inh retest: recorded beside PABP polyA inh, whose call it bears; inhibition, %; compound at 20 µM; confirmation repeats;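 mean of two retest wells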
MT1-MMP act inh RFP: second read-out of MT1-MMP act inh, no call of its own (marks repeat the call); RFP signal change, %; measured here: RFP expression control read;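 0 = vehicle wells; hits needed this value within 50% of zero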
* = called active by the depositor; i = inactive; / = not tested or not shown; + = active, no number. Not all compounds are listed; the hit share may differ from the screen's.

SMILES | UUG fidelity | Env fusion inh | CSC inhib | eIF4H FP inh | PABP polyA inh | Rce1 inhib | MT1-MMP act inh | MT1-MMP act inh RFP | others
CCCCOC(=O)C1C2C=C[C@]3(CN(C(C)c4ccc(OC)cc4)C(=O)[C@H]13)O2 (stereo not given in full) | -13 | / | -10 | -9 | 14 | i | 1 | 0
CCOC(=O)N1CCN(C(=O)CSCC(=O)N=c2sc3ccccc3n2C)CC1 | -11 | / | -5 | -2 | 1 | i | 2 | 1
CCCCc1cc(=O)oc2cc(OCC(=O)NC3CCN(Cc4ccccc4)CC3)ccc12 | -14 | 6 | 20 | 2 | -10 | i | 6 | 0
COc1ccc2nc(NC(=O)c3cc(S(=O)(=O)N4CCOCC4)ccc3C)sc2c1 | -2 | / | -10 | 6 | -9 | i | 1 | -8
O=C(NC(=S)Nc1ccccc1N1CCOCC1)c1ccco1 | / | -145 | -3 | 1 | 3 | i | -1 | 2
COc1cc(C(=O)NC2CCN(CC(=O)Nc3cccc(C)c3C)CC2)cc(OC)c1OC | -2 | 0 | -6 | -9 | -2 | / | 2 | 2
C=C(c1ccc(OCCO)cc1)c1ccc(OCCO)cc1 | -8 | / | -15 | 2 | 12 | i | 7 | -3
CC(=O)Nc1ccc(S(=O)(=O)N2CCN(c3ccccn3)CC2)cc1 | -9 | -9 | 9 | -4 | -3 | i | -1 | -6
Cc1cccc(NC(=O)N(Cc2nc3ccccc3c(=O)[nH]2)C2CCCC2)c1 | -16 | / | -12 | 8 | 6 | i | 1 | 4
CC1=NN(Cc2ccccc2)C(=O)C1C(c1ccccc1)C(C#N)C#N (stereo not given) | -16 | -72 | 6 | 1 | 7 | i | 4 | 5
Cc1c(NC(=O)C(C)Sc2nccn2C)c(=O)n(-c2ccccc2)n1C (stereo not given) | -18 | 7 | -6 | / | / | / | -2 | -1
CC(C)N1CCN(CC2COc3ccccc3O2)CC1 (stereo not given) | -11 | -3 | 22 | -8 | 18 | i | 0 | 7
Cc1ccc(C)c2nc(N3CCCC3)c(C#N)cc12 | -9 | / | -12 | 2 | 29 | / | -6 | 1
CC1=CCP(=O)(c2ccccc2)C1 (stereo not given) | 4 | / | 5 | -12 | -1 | i | 1 | 6
O=C(CNC(=O)c1ccc(Cl)cc1Cl)NCC(=O)Nc1ccccc1N1CCOCC1 | 6 | / | -4 | -2 | -11 | i | -5 | -1
Cc1cc(C)cc(N(C(=O)c2snc(C(N)=O)c2N)C(C(=O)NCC2CCCO2)c2cccs2)c1 (stereo not given) | / | 11 | 0 | -4 | 9 | i | -5 | 0
CCS(=O)(=O)c1ccc(O)c(NC(=O)/C=C/c2ccc(Cl)cc2)c1 | -15 | 5 | -8 | 1 | 5 | i | 5 | -4
O=C(c1ccc(O)c(Cl)c1)N1CCN(S(=O)(=O)c2ccccc2)CC1 | 17 | -53 | / | -4 | -8 | i | -8 | 1
O=C(c1ccco1)N1CCC(c2nc3c(nnn3Cc3c(Cl)cccc3Cl)c(=O)[nH]2)CC1 | 2 | -8 | 10 | -5 | 10 | i | -4 | -2
CCC1(CC)C(=O)C2=C3C1[C@H](C(=O)OC)CC(C(=O)OC)C[C@H]3[C@H]1C(=O)N(c3ccccc3)C(=O)[C@H]1[C@H]2C (stereo not given in full) | 20 | -35 | 1 | / | / | i | 0 | 1
C/C(=N\NC(=O)c1cc2ccccc2cc1O)c1cccs1 | -30 | -34 | 54 | 13 | 2 | i | 5 | 6
C/C(=N\NC(=O)c1ccccc1OCc1ccc(F)cc1)c1ccccn1 | -21 | -3 | 31 | / | / | / | -1 | -11
O=C1NC(=Nc2ccccc2)c2ccc([N+](=O)[O-])cc21 | -11 | / | 11 | -7 | 4 | i | -1 | 2
COC(=O)c1cccc(CC2(C)C(=O)Nc3ccc(OC(F)(F)F)cc32)c1 (stereo not given) | -1 | -3 | / | / | / | / | 4 | -3
C/C(=N\NC(=O)c1ccncc1)c1ccc(N(C)C)cc1 | / | -5 | -15 | 16 | 10 | i | 0 | 6

The results go on.
SMILES | UUG fidelity | Env fusion inh | CSC inhib | eIF4H FP inh | PABP polyA inh | Rce1 inhib | MT1-MMP act inh | MT1-MMP act inh RFP | others
CCOc1ccc(NC2OC(C)C(O)C(O)C2O)c([N+](=O)[O-])c1 (stereo not given) | 1 | -1 | -15 | 9 | 16 | i | 6 | 3
CCOC(=O)c1c(NC(=O)CSc2nnc(-c3cccnc3)o2)sc2c1CCC2 | / | -8 | -12 | 5 | -10 | i | 0 | 5
Nc1c2c(nn1-c1ccccc1)CCC2 | -11 | -4 | / | -9 | 2 | i | 2 | 7
O=C(NCCN1CCN(c2ccccc2)CC1)C1(S(=O)(=O)c2ccc(Cl)cc2)CC1 | -20 | 8 | -2 | 3 | -13 | / | -4 | -3
NN1C(=O)NC(c2ccccc2)(c2ccccc2)C1=O | / | 2 | 2 | -5 | -11 | i | -3 | 0
COc1ccc(C2C3=C(CCCC3=O)Nc3nc(SCc4ccc(C(=O)O)cc4)nn32)cc1OC (stereo not given) | -29 | -4 | 2 | -9 | -2 | i | 4 | 13
Cc1sc(-c2ccncc2)nc1OC(=O)c1ccccc1 | -23 | / | 7 | -2 | -10 | i | -11 | 3
CCC(=O)Nc1cccc(NC(=S)NC(=O)c2cc3ccccc3o2)c1 | / | -53 | -17 | 4 | 4 | i | 11 | -1
CSc1ccc(C(=S)N2CCCC2)cc1 | -13 | -68 | -10 | -8 | 7 | i | 1 | 0
CCCn1c(O)c(CN2CCCC(C)C2)c(C)c(C#N)c1=O (stereo not given) | -11 | -18 | 2 | 122 | 118 | i | -15 | 10 | eIF4H FP inh retest=4;PABP polyA inh retest=-5
CC(C)(CNC(=O)C1c2ccccc2-c2ccccc21)N1CCOCC1 | 6 | 7 | -4 | -3 | 8 | / | -4 | 0
N#Cc1ccc(C(=O)OCC(=O)N2CCCC2)cc1 | 0 | 3 | 17 | -4 | 18 | i | -1 | 3
O=C(Nc1nnc(-c2ccco2)s1)c1ccccc1 | -13 | -128 | 4 | 48 | 23 | i | -9 | -5
O=C(c1ccco1)N1CCN(C2CN(C3CCCC3)S(=O)(=O)C2)CC1 (stereo not given) | -1 | -2 | / | / | / | / | 5 | 7
COCCn1c(C)cc(C(=O)CN2C(=O)NC3(CCCCCC3)C2=O)c1C | -16 | -8 | / | / | / | / | 6 | 2
CCc1ccc2c(c1)C(C)=CC(C)(C)N2 | -20 | / | -7 | -8 | 25 | i | -1 | 7
COc1cccc(NC(=S)Nc2cc(C)cc(C)n2)c1 | -9 | -44 | 12 | -4 | 1 | i | -4 | 2
COc1ccc(-c2ccc(=O)n(Cc3cccc([N+](=O)[O-])c3)n2)cc1 | / | 5 | -3 | -7 | 5 | i | -6 | -11
Cc1cc(-c2nc(C)c(-c3nnc(SCC(=O)Nc4cc(Cl)cc(Cl)c4)n3C)s2)no1 | / | 21 | 4 | 5 | 2 | i | -2 | -4
c1cnc2c(Oc3ncnc4sccc34)cccc2c1 | -16 | 9 | 8 | 2 | -12 | i | 4 | 6
O=C(CCCCCn1c(=S)[nH]c2ccc(N3CCOCC3)cc2c1=O)NCc1ccc(Cl)cc1 | -12 | 0 | 11 | -4 | 17 | i | 2 | -1
CCOC(=O)N1CCC(NCCNC(=O)c2cccs2)CC1 | / | -138 | -3 | 4 | -7 | i | 3 | 6
CCOC(=O)C1(CCCc2ccccc2)CCN(C(=O)c2ocnc2C)CC1 | / | 21 | -7 | 11 | -2 | i | 2 | -1
COCCN(Cc1ccccc1)C(=S)Nc1ccc(OC(F)F)cc1 | / | -7 | -4 | -4 | 13 | i | -1 | -1
O=C(CN1CCN(Cc2ccc(F)cc2Cl)CC1)NCc1ccccc1 | -3 | 0 | -2 | -2 | 4 | i | -1 | -1

Next compounds
SMILES | UUG fidelity | Env fusion inh | CSC inhib | eIF4H FP inh | PABP polyA inh | Rce1 inhib | MT1-MMP act inh | MT1-MMP act inh RFP | others
COc1ccc([N+](=O)[O-])cc1NC(=O)c1ccc(N2C(=O)CCC2=O)cc1 | / | 3 | -8 | -2 | 6 | i | 0 | 3
CCOc1ccc(NC(=O)c2cc3ccccc3cc2O)cc1 | -11 | -55 | 27 | 98* | 73* | i | -2 | -2
COc1ccc(NC(=O)NCc2ccccc2F)cc1OC | / | 3 | / | -6 | -3 | i | 3 | 2
O=C1CN(C(=O)COC(=O)CNS(=O)(=O)/C=C/c2ccccc2)c2ccccc2N1 | / | -5 | 0 | -10 | -10 | i | 2 | 1
CCCN(CC(=O)Nc1ccccc1C)C(=O)C1CCN(S(=O)(=O)c2ccc(C)c(C)c2)CC1 | -7 | -76 | / | / | / | / | -2 | -1
C[C@H](NC(=O)c1ccco1)C(=O)Nc1ccc2c(c1)OCO2 | / | 5 | 2 | 0 | 10 | i | 4 | 0
CC(=O)c1ccc(Nc2nc(-c3sc(C)nc3C)cs2)cc1 | 1 | -4 | / | / | / | / | 9 | -15
Cc1c(Br)c(=O)oc2c(C)c(O)ccc12 | / | -67 | 16 | -3 | -11 | i | -3 | -1
CCn1c(SCC(=O)Nc2cccc(C(C)=O)c2)nnc1C(C)C | -1 | -10 | -1 | 0 | -4 | i | 3 | 5
Cc1cc(C(=O)NCCc2ccc(Cl)cc2)no1 | -9 | 9 | -4 | 3 | 4 | i | -5 | -3
COc1ccccc1NC(=O)Cc1nnc(SCC(=O)Nc2nccs2)n1C | -8 | 13 | / | -11 | 6 | + | -3 | 3
CCOc1ccccc1CN1CCNC(=O)C1CC(=O)NCc1ccccn1 (stereo not given) | -13 | 22 | -11 | 23 | 15 | i | 1 | 1

Gathered by group: the compounds so far with a Cl atom.
SMILES | UUG fidelity | Env fusion inh | CSC inhib | eIF4H FP inh | PABP polyA inh | Rce1 inhib | MT1-MMP act inh | MT1-MMP act inh RFP | others
O=C(CNC(=O)c1ccc(Cl)cc1Cl)NCC(=O)Nc1ccccc1N1CCOCC1 | 6 | / | -4 | -2 | -11 | i | -5 | -1
CCS(=O)(=O)c1ccc(O)c(NC(=O)/C=C/c2ccc(Cl)cc2)c1 | -15 | 5 | -8 | 1 | 5 | i | 5 | -4
O=C(c1ccc(O)c(Cl)c1)N1CCN(S(=O)(=O)c2ccccc2)CC1 | 17 | -53 | / | -4 | -8 | i | -8 | 1
O=C(c1ccco1)N1CCC(c2nc3c(nnn3Cc3c(Cl)cccc3Cl)c(=O)[nH]2)CC1 | 2 | -8 | 10 | -5 | 10 | i | -4 | -2
O=C(NCCN1CCN(c2ccccc2)CC1)C1(S(=O)(=O)c2ccc(Cl)cc2)CC1 | -20 | 8 | -2 | 3 | -13 | / | -4 | -3
Cc1cc(-c2nc(C)c(-c3nnc(SCC(=O)Nc4cc(Cl)cc(Cl)c4)n3C)s2)no1 | / | 21 | 4 | 5 | 2 | i | -2 | -4
O=C(CCCCCn1c(=S)[nH]c2ccc(N3CCOCC3)cc2c1=O)NCc1ccc(Cl)cc1 | -12 | 0 | 11 | -4 | 17 | i | 2 | -1
O=C(CN1CCN(Cc2ccc(F)cc2Cl)CC1)NCc1ccccc1 | -3 | 0 | -2 | -2 | 4 | i | -1 | -1
Cc1cc(C(=O)NCCc2ccc(Cl)cc2)no1 | -9 | 9 | -4 | 3 | 4 | i | -5 | -3

Bioassay records (PubChem BioAssay)
